# Screening data as filed in PubChem BioAssay.
# Biofilm kill mix: clotrimazole potentiators killing C. albicans biofilm, primary screen, 4-compound mixtures. C. albicans biofilm persisters + clotrimazole, fluorescence viability; primary screen in compound mixtures of four per well. inhibition, % at 7.6 µM. 0.02% of 120,000 active. AID 1242, 2008;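 active = inhibition above 30.3% in the primary screen of four-compound pools, then above 30% when the compound was retested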;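 also: compounds exposed to preformed 24 h biofilms for 48 h; the number belongs to the whole pool; some results filed as inactive read as strong as hits; inactives centre near 12; 0% = biofilm with clotrimazole alone and 100% = kill control; retested singly at about 60 µM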
#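 Probe or stimulus – Clotrimazole 50 µg/mL co-treatment · System – C. albicans biofilms · Schedule – 24 h biofilm formation, then 48 h compound exposure, 37 °C · Evaluation – percent inhibition of biofilm viability · Technique – 2-h Alamar Blue fluorescence, 535/590 nm excitation/emission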
# * = called active by the depositor. An excerpt, so the mix of outcomes need not match the whole.
SMILES,Biofilm kill mix
Clc1ccc(-c2csc(-c3ccncc3)n2)cc1,10
Cc1[nH]c2ccccc2c1CC#N,4
COc1ccc(CCNC(=O)C2CC(=O)N(CCc3ccc(C)cc3)C2)cc1OC (centres undefined),8
NC(=O)Cn1cnc2nc3n(c2c1=O)CCC3,9
COc1ccc(C(=O)/C=C/C(=O)N(CC(=O)NCCC(C)C)Cc2cccs2)c(O)c1,13
Cc1cc(=O)[nH]c(-n2ncc(C#N)c2N)n1,8
C=CCOc1ccc(Br)cc1CNC(C)(C)C,7
CCOc1cc(/C=C2/SC(=S)N(CC3CCCO3)C2=O)ccc1O (centres undefined),16
c1ccc(Oc2nc(-c3ccccn3)nc3ccccc23)cc1,17
Cc1ccc(SCCC(=O)Nc2nccs2)cc1,19
N#Cc1c(-c2cccs2)nc(SCC(=O)c2ccc(Br)cc2)[nH]c1=O,20
CC(=O)c1cc(C#N)c(N2CCCC2)nc1C,9
O=C(O)c1ccc(-n2ncc3c2/C(=C/c2cccc([N+](=O)[O-])c2)CC3)cc1,16
CC(=O)c1cc(F)ccc1OCC(=O)N1CCN(c2ccc(F)cc2)CC1,9
Clc1ccc(CO/N=C2\CCCc3nonc32)c(Cl)c1,20
Cc1cc(NC(=O)CSc2nnc(C)c(=O)n2N)no1,3
CCC(CC)NCC(O)COc1ccc(Br)cc1 (centres undefined),11
CCOC(=O)C(CCCP(=O)(c1ccccc1)c1ccccc1)(NC(C)=O)C(=O)OCC,14
C(=C\c1nc(-c2ccncc2)no1)/c1ccccc1,9
CC1(C)CC(=O)C/C(=N/NC(=O)c2ccc(-c3ccccc3)cc2)C1,2
COc1cc(CNCCc2ccc(S(N)(=O)=O)cc2)ccc1OCC(=O)NC(C)(C)C,3
CCNC(=S)N1CCn2c(nc3ccccc32)C1,6
Cn1c(=O)c2c(SCC(=O)N3CCOCC3)nc(C3CCCCC3)nc2n(C)c1=O,13
CN(Cc1cn(C)nc1-c1ccccc1F)CC1CCN(Cc2ccccc2)CC1,21
COCCn1cnc2c1c(=O)n(CC(=O)c1ccc3c(c1)OCCO3)c(=O)n2Cc1ccccc1,16

# A draw from above in order of SMILES length, smallest number first.
SMILES,Biofilm kill mix
C(=C\c1nc(-c2ccncc2)no1)/c1ccccc1,9
N#Cc1c(-c2cccs2)nc(SCC(=O)c2ccc(Br)cc2)[nH]c1=O,20
COc1ccc(CCNC(=O)C2CC(=O)N(CCc3ccc(C)cc3)C2)cc1OC (centres undefined),8
COc1cc(CNCCc2ccc(S(N)(=O)=O)cc2)ccc1OCC(=O)NC(C)(C)C,3
O=C(O)c1ccc(-n2ncc3c2/C(=C/c2cccc([N+](=O)[O-])c2)CC3)cc1,16

# Carrying on:
SMILES,Biofilm kill mix
O=C(COc1ccc(S(=O)(=O)Nc2ccccc2)cc1)NCc1ccncc1,0
CCn1c(C)cc(/C=C2\NC(=O)N(CC(=O)Nc3ccc(F)cc3)C2=O)c1C,17
COc1ccc(S(=O)(=O)N(NC2=NS(=O)(=O)c3ccccc32)C(=O)C(C)C)cc1,14
CC1CCC(NC(=O)C2c3ccccc3C(=O)N2Cc2ccc3c(c2)OCO3)CC1 (centres undefined),11
Cc1cccc(NC(=S)Nc2cccc(C)n2)n1,-2
CCNC(=O)NC(=O)C(C)OC(=O)c1ccc(-n2nc(SC)sc2=S)cc1 (centres undefined),18
CC1CC(C)CN(C(=O)Cn2c(-c3nonc3N)nc3ccccc32)C1 (centres undefined),11
N#Cc1c(NC(=O)C2CCCO2)sc2c1CCCCC2 (centres undefined),6
CCc1cccc(C)c1NC(=O)COC(=O)c1c2c(nc3ccccc13)/C(=C\c1cccs1)CCC2,9
CCOc1ccc(/C=C2/SC(=S)N(C(C(=O)O)c3ccccc3)C2=O)cc1OCC (centres undefined),16
CC(C)NC(=O)CSc1c2c(nc3ccccc13)CCCC2,12
COc1ccc(C(c2nnnn2C2CCCCC2)N2CCN(C)CC2)c(OC)c1 (centres undefined),11
COc1ccccc1C1c2c(C)nn(-c3ccccc3)c2NC(=O)C1NC(=O)c1ccccc1 (centres undefined),6
O=C(CSc1ncc(S(=O)(=O)c2ccccc2)c(=O)[nH]1)Nc1ccccc1Cl,25
COc1ccc(OC)c(NS(=O)(=O)c2ccc(Cl)nc2)c1,5
Cn1c(SCC#N)nnc1-c1cnccn1,21
CS(=O)(=O)Nc1ccc(C(=O)N2CCc3ccccc3C2)cc1,-5
CCN(c1ccccc1)S(=O)(=O)c1ccc(Cl)c(NC(=O)CSc2ncn[nH]2)c1,20
COc1ccc(N2CCN(C(c3nnnn3C3CCCC3)C(C)C)CC2)cc1 (centres undefined),20
Cc1cc(Br)ccc1OCCCCN1CCC(C)CC1,7
COCCNc1nc(C)cc(-c2cc(C(=O)NCc3ccccc3)on2)n1,13
COC(=O)c1sc(-c2ccc(Cl)cc2)cc1NC(=O)/C=C/C(=O)O,18
COc1ccc(NC(=O)Cc2nnc(N)s2)cc1,7
O=C(O)c1ccccc1C(=O)N1CCc2c([nH]c3ccccc23)C1C(F)(F)F (centres undefined),23
S=C(NCc1cccnc1)Nc1ccc(Oc2ccccc2)cc1,12

# More records follow:
SMILES,Biofilm kill mix
COc1ccc(CNS(=O)(=O)NCc2ccccc2)cc1OC,6
CCOC(=O)CNNC(=O)Nc1ccc(Cl)c(Cl)c1,10
Fc1ccc(-c2nc(-c3cnccn3)no2)c(Cl)c1,18
O=c1c([N+](=O)[O-])c(NC2CCCCC2)c2ccccc2n1-c1ccccc1,15
CCOC(=O)C1=NOC(Cn2cc(C(C)=O)c(=O)[nH]c2=O)C1 (centres undefined),-17
Clc1ccc(CSc2ccc(-c3ccco3)nn2)cc1,23
CCC(=O)N1CC2(CC(c3cccc(NC(=O)COc4ccc(Cl)cc4)c3)=NO2)C[C@@H]1C(N)=O (some centres undefined),10
O=C1CCC(CCC(=O)N2CCCC(C(=O)c3ccc4c5c(cccc35)CC4)C2)=NN1 (centres undefined),2
Cc1c(C(=O)NCc2ccccc2)oc2c1C(=O)CCC2,12
CN(C)CC(C)(C)CNC(=S)NCc1ccc2c(c1)OCO2,17
O=C(c1cccc(S(=O)(=O)N2CCOCC2)c1)N1CCN(S(=O)(=O)c2cccs2)CC1,9
COc1ccc(C(=O)Nn2c(SCc3cccc([N+](=O)[O-])c3)nc3ccccc3c2=O)cc1,0
COCCN=C1Sc2nc3cc(C)c(C)cc3cc2CN1Cc1cccs1,9
CCOC(=O)CN(c1ccccc1)S(=O)(=O)c1ccc(F)cc1,12
Cn1c(=O)c(=O)n(C)c2cc(S(=O)(=O)NCCOc3ccccc3)ccc21,10
OCCOCCN1CCN(C(=S)Nc2ccccc2)CC1,17
CCCCc1nnc2c(N(C)S(=O)(=O)c3ccc(C)cc3)nc3ccccc3n12,20
COc1ccc([C@@H]2OC2(C(N)=O)C(N)=O)cc1,1
Nc1cc(=O)[nH]c(SCC(=O)Nc2cccc([N+](=O)[O-])c2)n1,15
FC(F)Oc1ccc(NC(=S)NNc2ccnc3cc(Cl)ccc23)cc1,34
Cc1sc2ncn(CC(=O)Nc3ccccc3F)c(=O)c2c1-c1ccccc1,11
O=C1CC(c2ccccc2)CN1C(=O)c1cccc([N+](=O)[O-])c1 (centres undefined),5
Cc1ccc(NC(=S)N(CCN(C)C)Cc2cc3cc(C)ccc3[nH]c2=O)cc1,29
O=C(COC(=O)c1cc2ccccc2cc1O)NC(=O)NCc1ccco1,14
CCOc1cc(NC(=S)NCCCN2CCOCC2)c(OCC)cc1NC(=O)c1cccs1,22

# Going on with the list.
SMILES,Biofilm kill mix
COc1ccc(C(CCN2CCN(c3ccccc3)CC2)c2c(OC)cc(OC)c3c(-c4ccccc4)cc(=O)oc23)cc1 (centres undefined),1
NNC(=O)c1cc2c(ccc3ccccc32)o1,14
COc1cc(C2C3=C(CCCC3=O)Nc3[nH]n(-c4ccccc4)c(=O)c32)ccc1OC(C)=O (centres undefined),22
CC(C)OC(=O)CSc1nc2c(cc1C#N)CCCCC2,25
Cc1ccc(Cn2nc(C)c(/C=N/NC(=O)c3cccnc3)c2C)cc1,16
CC(C)c1ccc2c(c1)C1Cc3ccccc3C1N2 (centres undefined),21
Cc1ccc2[nH]c3c(Cl)ncnc3c2c1,8
O=C(Cc1ccccc1)NCCSCc1ccccc1,23
O=C(CSc1nnc(-c2ccncc2)n1Cc1ccco1)Nc1cccc(O)c1,29
O=C(Nn1cc(C(=O)Nc2ccccc2F)c2ccccc2c1=O)c1cnccn1,5
COc1ccc(/C=N\NC(=O)c2nn(C)cc2Cl)cc1CN1CCOCC1,9
COc1ccc(C(CCNCc2ccccc2F)c2ccc(F)cc2)cc1 (centres undefined),10
COc1ccccc1/C=C/C=N/n1c(-c2ccncc2)n[nH]c1=S,11
CN(C)S(=O)(=O)c1cccc(NC(=O)CNCC2CCCCC2)c1,5
COc1ccc(O)c(C(=O)c2cnc3c(c2)c(=O)[nH]c(=O)n3C)c1,-11
Cc1ccc(SCC(=O)Nc2ccc3c(c2)OCCO3)cc1,6
C/C=N/NC(=O)CCNC(=O)c1ccccc1,13
C/C=C/C(=O)OCC(=O)Nc1ccc(SC(F)F)cc1,4
O=C(NCCN1CCN(c2ccccc2)CC1)c1ccc2c(c1)[nH]c(=S)n1c3ccccc3nc21,26
O=C(/C=C/c1ccc(S(=O)(=O)N2CCOCC2)cc1)NCCCn1ccnc1,4
c1ccc(-c2nnc(SCC3CCCCO3)nc2-c2ccccc2)cc1 (centres undefined),8
Cc1ccc(O)c(C(=O)c2cnc3c(c2)COc2ccccc2-3)c1,13
COc1ccc(NC(=S)N(Cc2ccc(Cl)cc2)Cc2ccc(C(=O)O)cc2)cc1Cl,2
O=C(COc1ccc2ccccc2c1)Nc1cccc(C(=O)Nc2ccccc2C(=O)O)c1,21
Cn1c(COc2ccccc2)nnc1SCC(=O)NNC(=O)C1CCCCC1,20

# (further entries)
SMILES,Biofilm kill mix
COc1cccc(CNC(=O)CCSCc2ccccc2F)c1,15
CCCCc1cc(=O)oc2cc(O)cc(O)c12,-8
CCOC(=O)C1CCCN(C(=S)Nc2ccc(OC)cc2)C1 (centres undefined),15
Cn1c(-c2ccccc2)c(C=O)c2ccccc21,18
O=C(Oc1ccc([N+](=O)[O-])cc1)c1cncc(Br)c1,18
O=C(NC(=S)N1CCN(c2ccccn2)CC1)c1ccco1,31
N=C1C(=O)OCC1c1ccccc1NC(=O)CN1CCCCC1 (centres undefined),9
CCOc1ccccc1CN1CCN(C/C=C/c2ccc(OC)cc2)CC1CCO (centres undefined),8
CCSc1nc2c(c(=O)[nH]c(=O)n2C)n1CC(O)COc1ccccc1 (centres undefined),23
S=C(NCCCN1CCOCC1)Nc1ccc(-c2nc3ccccc3[nH]2)cc1,11
CC(C)Oc1ccc(CCC(=O)NNC(=S)Nc2ccccc2)cc1,3
CCN1CCN(CC2CC3C=CC2C3)CC1 (centres undefined),7
NS(=O)(=O)c1ccc(NC(=S)N2CCN(c3cccc(Cl)c3)CC2)cc1,15
C(=N\N1CCN(Cc2cccc3ccccc23)CC1)/c1cccs1,16
Cc1ccc(/C([O-])=C(/C(=S)NCc2ccccc2)[n+]2cccc(CO)c2)cc1[N+](=O)[O-],7
CCOC(=O)C(=CN=C(N)Nc1nc2ccccc2o1)C(=O)OCC,-1
COC(=O)C(NS(=O)(=O)c1ccc(C)cc1)c1ccccc1 (centres undefined),21
Cc1ccc(-c2csc(=Nc3cccnc3)n2CCCn2ccnc2)cc1C,12
COCCNC(=O)c1ccccc1NC(=O)c1ccccc1SC,9
O=C(COC(=O)[C@H](Cc1ccccc1)NC(=O)c1cccs1)Nc1c(Cl)cccc1Cl,9
COC(=O)C1=C(C)N(C)C(=S)NC1c1ccccc1 (centres undefined),10
COc1cc([N+](=O)[O-])cc(/C=N/NC(=O)Cn2cncn2)c1O,18
COCCNC(=O)CCCC(=O)NCCOC,7
COc1ccc(/C=N/NC(=O)Cc2cc(OC)c(OC)cc2[N+](=O)[O-])cc1,7
COc1cc(NC(=O)c2ccccc2)c(OC)cc1Cl,10

# Following part.
SMILES,Biofilm kill mix
Cn1nc(C(C)(C)C)cc1NC(=O)Nc1cc(Cl)cc(Cl)c1,0
Cc1ccccc1OCC(=O)NN1C(=O)C2C3C=CC(O3)C2C1=O (centres undefined),-5
CCCCN(C(=O)Oc1ccccc1)C1CCS(=O)(=O)C1 (centres undefined),12
CN(CCc1ccccc1)Cc1nc(-c2cnccn2)no1,17
O=C(CCN1CCN(c2ccccc2)CC1)N/N=C/c1ccc([N+](=O)[O-])o1,15
O=C(CNC(=S)N(Cc1ccccc1)Cc1cccnc1)NC1CCCC1,15
O=C(CSc1nnc(NC(=O)C2CCCCC2)s1)NCc1ccco1,19
Cc1ccsc1/C=C(\C#N)C(=O)NCc1ccco1,22
Cc1cccc(Sc2nc(-c3ccccc3)ncc2C(=O)O)c1,13
CC(C)C(=O)NC(=S)Nc1ccc(CN2CCOCC2)cc1,-10

# 4 entries picked at random from the list so far:
SMILES,Biofilm kill mix
CCCCN(C(=O)Oc1ccccc1)C1CCS(=O)(=O)C1 (centres undefined),12
O=C(CCN1CCN(c2ccccc2)CC1)N/N=C/c1ccc([N+](=O)[O-])o1,15
O=C(CNC(=S)N(Cc1ccccc1)Cc1cccnc1)NC1CCCC1,15
O=C(CSc1nnc(NC(=O)C2CCCCC2)s1)NCc1ccco1,19

# 4 entries from above, with each value named.
O=C(CCN1CCN(c2ccccc2)CC1)N/N=C/c1ccc([N+](=O)[O-])o1
- Biofilm kill mix: 15

O=C(CNC(=S)N(Cc1ccccc1)Cc1cccnc1)NC1CCCC1
- Biofilm kill mix: 15

O=C(CSc1nnc(NC(=O)C2CCCCC2)s1)NCc1ccco1
- Biofilm kill mix: 19

Cc1ccsc1/C=C(\C#N)C(=O)NCc1ccco1
- Biofilm kill mix: 22
